Beta apoptosis: beta cell apoptosis inhibition; protection from apoptosis, % (concentration not given with the values); actives 0.8% (n = 300,000); INS-1E cytokine-induced death, ATP luminescence, 48 h; percent of positive-control rescue, neutral wells zero; AID 435005;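 active means all replicates at 75% or more, or half of them and the mean; inconclusive means half reach 75% but not the mean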;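 further: 0% = cytokine-treated negative control wells and 100% = positive control rescue; higher means more ATP so stronger rescue from cytokine killing; wells of about 40 µL received 100 nL stock; the first replicate is given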
B2AR ag: agonists of human beta-2 adrenergic receptor inducing internalization | actives 0.43% (n = 340,000) | Am2.2-beta2AR cells, FAP receptor internalization, flow cytometry; reference of the scale not given here | response, % (test concentration not listed) | AID 504454 | P07550;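 active means response above a set limit, near 3 SD of response in nonfluorescent compounds, cut at about 42% in these data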;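 further: stock transfer was 100 nL into about 11 µL; a reference agonist was the positive control; negative values mostly stem from fluorescent compounds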
Target sequence (P07550 whole entry, looked up): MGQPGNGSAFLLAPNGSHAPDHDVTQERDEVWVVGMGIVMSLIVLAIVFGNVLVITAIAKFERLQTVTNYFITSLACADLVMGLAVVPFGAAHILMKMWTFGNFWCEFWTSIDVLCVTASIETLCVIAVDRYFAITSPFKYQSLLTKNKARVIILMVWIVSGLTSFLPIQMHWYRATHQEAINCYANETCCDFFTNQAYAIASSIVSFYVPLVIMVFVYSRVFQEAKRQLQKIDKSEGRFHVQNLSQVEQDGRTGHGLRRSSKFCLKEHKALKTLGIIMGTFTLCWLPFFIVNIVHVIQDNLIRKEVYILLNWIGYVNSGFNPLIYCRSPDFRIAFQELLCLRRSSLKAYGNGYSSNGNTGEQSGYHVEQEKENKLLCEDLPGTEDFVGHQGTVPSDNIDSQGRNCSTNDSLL
A1 inh: inhibitors of the anti-apoptotic protein A1, read as caspase activation; MEF A1-2A-BIM cells, Caspase-Glo 3/7 luminescence, 3 h; percent of clofoctol response, vehicle zero; caspase activation, % (no concentration beside the values); actives 0.066% (n = 330,000);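 active means over half of replicate activation scores above 10%, or exactly half above 10 with the replicate mean above 10; inconclusive means replicate mean below 10 yet half the replicates above 10; inactive means over half of replicates below 10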;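 further: wells of about 30 µL received 50 nL stock; many hits fall short of the cut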
Calb FLC: affects C. albicans growth with fluconazole; C. albicans CaCi-2 (fluconazole-resistant clinical isolate) + fluconazole, Alamar Blue growth, 48 h; growth inhibition, % (test concentration not listed); AID 1979; actives 0.57% (n = 300,000);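 active means most replicates above 75%; inconclusive means exactly half above 75%; inactive means most below 75%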;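 further: all wells also contain fluconazole at 8 µg/ml as a sub-toxic cotreatment; 0% = median of DMSO wells and 100% = median of geldanamycin control wells; wells of about 8 µL received 7.5 nL stock; the first replicate is given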
UCH37 DUB inh: human UCH37 deubiquitinating enzyme inhibition; Q9Y5K5; purified proteasome/UCH37, Ub-AMC cleavage fluorescence; inhibition, % (concentration not given with the values); actives 0.33% (n = 330,000);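 active means mean of two replicates above 20%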;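 further: 0% = compound-free wells with enzyme and 100% = wells lacking proteasome; stock transfer was 100 nL into about 20 µL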
Target sequence (Q9Y5K5 whole entry, looked up): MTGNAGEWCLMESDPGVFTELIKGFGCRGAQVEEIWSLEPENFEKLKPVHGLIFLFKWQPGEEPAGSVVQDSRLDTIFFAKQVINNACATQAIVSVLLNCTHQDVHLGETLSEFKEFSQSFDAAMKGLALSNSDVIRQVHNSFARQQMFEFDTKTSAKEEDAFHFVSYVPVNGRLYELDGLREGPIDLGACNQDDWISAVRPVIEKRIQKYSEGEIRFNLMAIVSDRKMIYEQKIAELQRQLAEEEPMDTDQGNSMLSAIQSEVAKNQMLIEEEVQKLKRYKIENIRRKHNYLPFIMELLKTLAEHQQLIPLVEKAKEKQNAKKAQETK
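Material: human UCH37 enzyme supplied as purified proteasome complex / Amount: 0.15 nM proteasome as dispensed / Buffer or medium: pH 7.4 Tris-HCl (50 mM) with ovalbumin, ATP-MgCl2, DTT / Times: preincubation 30 min, reaction 25 min, room temperature / Technique: AMC fluorescence from Ub-AMC cleavage, excitation 355 nm, emission 460 nm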
LANA-H2A inh: blocks KSHV LANA binding to histone H2A/H2B; cell-free LANA-H2A/H2B peptide, fluorescence polarization; inhibition, % (concentration not given with the values); actives 0.6% (n = 320,000); AID 2629; Q9QR71; in the data active means inhibition mostly above about 10%, no sharp cut-off; inactive means mostly below about 6.7%;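 further: stock transfer was 7.5 nL into about 10 µL; 0% = median of vehicle wells and 100% = median of positive control wells; one replicate is shown; the record names a cut of 25% in any replicate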
T cruzi repl: T. cruzi replication inhibition. inhibition, % (test concentration not listed). actives 1.4% (n = 300,000). AID 1885. T. cruzi beta-gal in NIH3T3, luminescence, 90 h;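 active means mean inhibition across valid replicates above about 55%, limit read from the data; inconclusive means mean below that limit but half or more replicates reach it; inactive means mean below it, under half of replicates reach it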;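 further: signal also drops with host cell toxicity which is not excluded here; 0% = plate median of DMSO wells and 100% = zero luminescence signal; higher percent means less beta-gal luminescence so fewer parasites; stock transfer was 50 nL into about 50 µL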
RanGTP-Imp inh: disruptors of Ran-importin-beta complex formation – biochemical, FRET, CFP-Ran, YFP-importin-beta, homogeneous, primary screen | AID 2216 | cell-free CFP-Ran/YFP-importin-beta FRET ratio | inhibition, % (concentration not given with the values) | actives 1.1% (n = 300,000);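 active means most replicates above 15%; inconclusive means exactly half above 15%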;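 further: 0% = DMSO wells and 100% = Ran loaded with GDP instead of GTP; wells of about 40 µL received 100 nL stock; the first replicate is given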
The depositor's hits bear a star; ? = inconclusive; nt = no result given. Rows were taken by chance, and some 4.3% of all compounds hit somewhere here.

SMILES	Beta apoptosis	B2AR ag	A1 inh	Calb FLC	UCH37 DUB inh	LANA-H2A inh	T cruzi repl	RanGTP-Imp inh
CCN(CC)S(=O)(=O)c1ccc(NS(=O)(=O)c2ccc3oc(=O)[nH]c3c2)cc1	-4	-1	0.4	3	-1.1	3.4	-6	3.9
Cc1ccc(C)c(S(=O)(=O)N2CCN(C(=O)c3ccc(C)s3)CC2)c1	0	5	0.4	2	1.2	3.4	12	2.3
CC(=O)C1C(c2ccncc2)NC(=O)NC1(O)C(F)(F)F (stereo not given)	-5	-3	-0.5	-9	2.4	2.5	nt	3.1
COc1ccc(NC(=O)Cc2nnc(SCC(=O)NC3=NCCS3)n2C)cc1	-27	-6	-0.5	-3	2.8	-1.1	6	0.8
Cc1occc1-c1nnc(SCC(=O)Nc2nccs2)n1CCc1ccccc1	-13	nt	-0.1	1	2.5	-54	3	-7.2
CON(C)c1nc(Oc2ccc(=O)[nH]n2)nc(N(C)C)n1	-10	-5	-0.7	-16	3.0	-0.8	6	-1.3
CCCCNC(=O)c1c(N)n(/N=C/c2ccccn2)c2nc3ccccc3nc12	0	nt	-0.1	4	nt	-2.4	13	3.9
COc1cccc(CN(C)C(=O)c2cc(-c3ccc(F)cc3)nc3ccccc23)c1	14	8	0.3	?	-1.1	-2.4	24	-2.8
COc1ccc(/C=C(/NC(=O)c2ccccc2OC)C(=O)Nc2ccc(C(=O)O)cc2)cc1	1	-1	0.5	-1	6.6	-3.0	-18	4.0
COc1ccc(C(=O)C(C)OC(=O)CNC(=O)C2CCCCC2)cc1 (stereo not given)	-5	2	1.5	nt	0.1	3.7	nt	nt
COc1ccc(NC(=O)CNS(=O)(=O)c2cccs2)c(OC)c1	4	1	-0.4	7	3.9	0.5	-12	-0.8
O=[N+]([O-])C(/C=C(\Cl)[N+](=O)[O-])=C(N1CCCCC1)N1CCCCC1	3	4	0.4	-3	0.8	0.3	61*	-0.2
CN(C(=O)COC(=O)c1ccccc1C(=O)N(C)c1ccccc1)c1ccccc1	0	0	0.7	-6	nt	4.7	-2	-1.0
COc1ccc(NC(=O)CN(C)CC(=O)c2c(C)[nH]c3ccccc23)cc1	-2	-1	1.5	nt	2.7	-0.1	nt	nt
CCCc1nc(SC)[nH]c(=O)c1C	-6	2	1.1	5	2.8	0.3	-29	-0.4
CC1CCCC(C)N1C(=O)COC(=O)CCC1CCCC1 (stereo not given)	-6	8	-0.1	4	0.8	-1.0	-2	-0.5
CCN(CC)S(=O)(=O)c1cccc(NC(=O)COC(=O)/C=C/c2cccs2)c1	2	-6	0.2	-6	1.9	-2.7	-7	4.1
COC(=O)c1cn(CC(=O)NC2CCCCC2)c2ccccc12	3	11	0.4	100*	2.4	8.5	-2	-13
CN(C)S(=O)(=O)c1cccc(NC(=O)CSc2nncn2-c2ccccc2)c1	-3	-8	-0.6	-27	2.1	-2.3	4	5.8
Cc1ccc(SCC(=O)NCc2ccc(F)cc2)cc1	1	-5	-0.4	-10	1.8	3.4	nt	nt
CCc1cc2c(=O)n(Cc3ccccc3)c(SC3CCOC3=O)nc2s1 (stereo not given)	-8	-1	2.0	10	5.2	2.0	0	-5.8
CCS(=O)(=O)c1nc(S(=O)(=O)c2ccc(Cl)cc2)c(N2CCC3(CC2)OCCO3)s1	0	-7	-0.4	-2	3.4	2.2	2	-0.6
O=C(NCCC1CCCCN1S(=O)(=O)c1cccs1)C(=O)Nc1ccc(F)cc1 (stereo not given)	nt	-8	0.6	26	-0.1	4.8	12	1.8
CCn1c(C)c(C)c2cc(C(=O)NCCCN3CCN(C)CC3)ccc21	-2	17	0.1	0	-3.5	2.5	-5	3.1
COc1ccc(S(=O)(=O)Nc2ccccn2)cc1	8	3	0.6	-9	-5.5	-2.7	-8	1.2
(continued)
SMILES	Beta apoptosis	B2AR ag	A1 inh	Calb FLC	UCH37 DUB inh	LANA-H2A inh	T cruzi repl	RanGTP-Imp inh
COc1ccc(C(=O)NC(C)c2nnc(SCC(=O)NC3=NCCS3)n2C)cc1 (stereo not given)	-6	0	1.0	-1	2.2	1.1	-13	1.7
O=C(CCn1nc(-c2ccc(Cl)cc2)c2ccccc2c1=O)NN1CCOCC1	-11	-9	-0.1	-6	1.5	-3.3	4	0.9
Cc1ccc(OCC(=O)N2N=C(C(F)(F)F)CC2(O)C(C)(C)C)cc1C (stereo not given)	22	-3	-0.6	-16	5.9	1.8	8	3.8
COc1ccc(NC(=O)CSc2nnc(-c3cnccn3)n2C)cc1OC	0	1	-0.3	-6	-0.3	-8.2	-20	6.1
COc1ccc(S(=O)(=O)N2CCOCC2)cc1NC(=O)CCCOc1ccccc1	-16	-2	0.7	nt	5.5	-0.4	nt	nt
COc1ccccc1Nc1nnc(SCC(=O)NC(=O)Nc2ccc3c(c2)OCCO3)s1	-10	0	-0.6	2	nt	5.4	-16	2.2
N#C/C(=C/c1ccccc1[N+](=O)[O-])c1nnc2n1CCCCC2	4	7	1.4	-3	0.5	-1.1	-16	?
Clc1ccccc1C1CC(c2ccccc2)Nc2ncnn21 (stereo not given)	-6	-9	-0.1	-2	-0.3	0.0	-1	4.2
CCCCc1ccc(NC(=S)N2CCN(C(=O)c3ccco3)CC2)cc1	-12	-15	0.3	-24	2.2	-6.6	-6	5.1
CCCc1cc(=O)[nH]c(SCC(=O)NCCN2C(=O)CSC2=O)n1	-5	0	-0.1	nt	0.6	-5.5	nt	nt
O=C(CCN1C(=O)c2cccc([N+](=O)[O-])c2C1=O)NC1CCCCCC1	5	-1	0.3	nt	2.2	-0.8	nt	nt
COCCCn1c(SCc2cccc(OC)c2)nc2cc(OC)c(OC)cc2c1=N	7	7	-1.3	2	0.4	-1.0	33	-5.1
CCOc1ccc2nc(/N=C/c3nc(-c4ccc(Br)cc4)oc3O)sc2c1	1	-94	-1.1	-2	nt	1.0	-3	1.5
Cc1ccc2c(c1)CCCN2C(=O)Nc1ccc2c(c1)OCO2	8	-1	-2.5	-16	3.1	3.7	-8	3.7
CC1(C)CC(=O)C(C(c2ccccc2F)C2C(=O)CC(C)(C)CC2=O)C(=O)C1	0	-2	-0.5	-1	-4.1	-2.8	-5	0.0
CCOc1c(Cl)cc(CNc2nnnn2C)cc1OC	-3	-4	0.5	5	nt	2.9	-5	1.0
CCOC(=O)c1c(-c2ccccc2)csc1NC(=O)c1ccc(S(=O)(=O)N2CC(C)OC(C)C2)cc1 (stereo not given)	6	6	-0.2	-4	-113	-1.3	-8	1.3
Cc1cccc(C)c1-n1cccc1/C=C1\SC(=S)N(c2cccc(C(=O)O)c2)C1=O	4	10	0.9	60	13	-5.9	9	0.1
Cc1ccc(C(=O)Nc2ccc(N3CCOCC3)nc2N2CCOCC2)cc1	-3	-4	4.3	8	-3.4	-1.3	-4	4.2
COc1ccccc1CCNS(=O)(=O)c1ccc(C(=O)O)n1C	-8	2	0.0	0	4.8	-3.2	-17	0.3
Fc1cc(F)c(NC(=S)N2CCOCC2)c(F)c1	-1	1	-0.1	0	2.2	0.6	8	?
C/C(=N\NC(=S)NC1CCCCC1)c1ccc(C#N)cc1	6	-10	0.5	7	nt	-4.0	-6	3.6
O=C(NC(=O)N1CCOCC1)c1ccccc1	-1	0	-0.7	-8	0.3	-0.8	0	-2.6
CCCCN(C(=O)c1ccc([N+](=O)[O-])o1)c1c(N)n(CCCC)c(=O)[nH]c1=O	-12	9	-0.7	1	2.4	nt	49	-3.5
COc1cc(CNCc2cc(OC)c(OC)c(OC)c2)cc(OC)c1	9	-4	-0.6	0	5.6	5.0	-15	3.7

Part of the list above, comma-delimited:
SMILES,Beta apoptosis,B2AR ag,A1 inh,Calb FLC,UCH37 DUB inh,LANA-H2A inh,T cruzi repl,RanGTP-Imp inh
COc1ccc(NC(=O)CSc2nnc(-c3cnccn3)n2C)cc1OC,0,1,-0.3,-6,-0.3,-8.2,-20,6.1
COc1ccc(S(=O)(=O)N2CCOCC2)cc1NC(=O)CCCOc1ccccc1,-16,-2,0.7,nt,5.5,-0.4,nt,nt
COc1ccccc1Nc1nnc(SCC(=O)NC(=O)Nc2ccc3c(c2)OCCO3)s1,-10,0,-0.6,2,nt,5.4,-16,2.2
N#C/C(=C/c1ccccc1[N+](=O)[O-])c1nnc2n1CCCCC2,4,7,1.4,-3,0.5,-1.1,-16,?
Clc1ccccc1C1CC(c2ccccc2)Nc2ncnn21 (stereo not given),-6,-9,-0.1,-2,-0.3,0.0,-1,4.2
CCCCc1ccc(NC(=S)N2CCN(C(=O)c3ccco3)CC2)cc1,-12,-15,0.3,-24,2.2,-6.6,-6,5.1
CCCc1cc(=O)[nH]c(SCC(=O)NCCN2C(=O)CSC2=O)n1,-5,0,-0.1,nt,0.6,-5.5,nt,nt
O=C(CCN1C(=O)c2cccc([N+](=O)[O-])c2C1=O)NC1CCCCCC1,5,-1,0.3,nt,2.2,-0.8,nt,nt
COCCCn1c(SCc2cccc(OC)c2)nc2cc(OC)c(OC)cc2c1=N,7,7,-1.3,2,0.4,-1.0,33,-5.1
CCOc1ccc2nc(/N=C/c3nc(-c4ccc(Br)cc4)oc3O)sc2c1,1,-94,-1.1,-2,nt,1.0,-3,1.5
Cc1ccc2c(c1)CCCN2C(=O)Nc1ccc2c(c1)OCO2,8,-1,-2.5,-16,3.1,3.7,-8,3.7
CC1(C)CC(=O)C(C(c2ccccc2F)C2C(=O)CC(C)(C)CC2=O)C(=O)C1,0,-2,-0.5,-1,-4.1,-2.8,-5,0.0
CCOc1c(Cl)cc(CNc2nnnn2C)cc1OC,-3,-4,0.5,5,nt,2.9,-5,1.0
CCOC(=O)c1c(-c2ccccc2)csc1NC(=O)c1ccc(S(=O)(=O)N2CC(C)OC(C)C2)cc1 (stereo not given),6,6,-0.2,-4,-113,-1.3,-8,1.3

More structures follow:
SMILES	Beta apoptosis	B2AR ag	A1 inh	Calb FLC	UCH37 DUB inh	LANA-H2A inh	T cruzi repl	RanGTP-Imp inh
O=C(Nc1ccc(N2CCN(C(=O)c3ccco3)CC2)cc1)c1ccccc1Br	5	3	1.7	-6	0.9	3.3	3	-4.6
COc1ccc(Cc2c(N)nc(C)nc2N)cc1	-19	7	-0.5	28	4.4	0.5	-34	3.4
CCOc1ccc(/C(CCC(=O)O)=N/NC(=S)NC(C)C)cc1	4	0	0.5	-8	nt	1.6	2	-1.2
Cc1ccc(O)c(NC(=O)c2noc(C(C)C)c2[N+](=O)[O-])c1	1	20	0.2	28	1.0	-2.2	-15	4.0
COc1cc(C2c3[nH]c4ccccc4c3CCN2Cc2cn(C)nc2C)ccc1F (stereo not given)	-1	2	0.4	-31	-11	0.2	17	-1.9
O=C(Cn1c(CO)nc2ccccc21)Nc1ccccc1Cl	0	-6	-0.1	6	nt	9.7	-1	4.2
O=C1CC(c2cccc(Br)c2)C2=C(COC2=O)N1 (stereo not given)	-3	-1	0.5	-10	0.7	8.1	-12	nt
